PKD1 kinase inh – inhibitors of human PKD1 kinase. Q15139. PKD1 kinase fluorescence polarization assay. inhibition, %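 (about 10 µM by stock and volumes)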. 0.056% of 200,000 active;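 active = inhibition of 50% or more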;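 also: controls were vehicle for no effect and a reference inhibitor for full effect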
GALR2 ag – GALR2 (human) receptor agonism; O43603; GALR2-expressing cells, agonist activation read-out; activation, %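 (tested at 5 µM)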; 0.48% of 140,000 active;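 active = above mean plus 3 SD of all compounds, about 5% in these data, not always enough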;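 also: 0% = vehicle buffer wells and 100% = reference agonist at full effect; tested in CHO reporter cells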
Target sequence (O43603 whole entry, looked up): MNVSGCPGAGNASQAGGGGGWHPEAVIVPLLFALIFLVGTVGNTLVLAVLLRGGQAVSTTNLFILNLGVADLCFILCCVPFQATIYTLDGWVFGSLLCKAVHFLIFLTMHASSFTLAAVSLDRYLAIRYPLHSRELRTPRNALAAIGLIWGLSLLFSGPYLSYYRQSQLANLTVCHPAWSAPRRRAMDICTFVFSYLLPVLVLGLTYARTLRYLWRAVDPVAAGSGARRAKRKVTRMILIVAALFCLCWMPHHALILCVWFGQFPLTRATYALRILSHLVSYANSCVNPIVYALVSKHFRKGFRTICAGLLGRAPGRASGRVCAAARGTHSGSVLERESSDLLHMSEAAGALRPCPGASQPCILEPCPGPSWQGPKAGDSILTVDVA
RGS16-Gao HTS – modulates binding between human RGS16 and Galphao; bead-based flow cytometry RGS16-Galphao binding, fluorescence; actives lie on both sides; 0.38% of 220,000 active; binding response (% of control), % at 10 µM;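 active = below 25% or above 175%, edge rows of some plates excepted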;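 also: Galphao activated by GDP with aluminum fluoride before binding; 100% = wells without compound and 0% = beads without RGS; some results beyond the cut were filed as inactive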
Target sequence (O15492 whole entry, looked up): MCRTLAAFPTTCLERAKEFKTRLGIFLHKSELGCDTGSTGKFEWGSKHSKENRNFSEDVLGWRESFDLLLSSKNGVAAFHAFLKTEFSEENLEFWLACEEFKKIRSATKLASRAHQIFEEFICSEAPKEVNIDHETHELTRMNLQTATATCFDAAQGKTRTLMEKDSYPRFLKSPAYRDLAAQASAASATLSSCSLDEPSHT
Target sequence (P09471 whole entry, looked up): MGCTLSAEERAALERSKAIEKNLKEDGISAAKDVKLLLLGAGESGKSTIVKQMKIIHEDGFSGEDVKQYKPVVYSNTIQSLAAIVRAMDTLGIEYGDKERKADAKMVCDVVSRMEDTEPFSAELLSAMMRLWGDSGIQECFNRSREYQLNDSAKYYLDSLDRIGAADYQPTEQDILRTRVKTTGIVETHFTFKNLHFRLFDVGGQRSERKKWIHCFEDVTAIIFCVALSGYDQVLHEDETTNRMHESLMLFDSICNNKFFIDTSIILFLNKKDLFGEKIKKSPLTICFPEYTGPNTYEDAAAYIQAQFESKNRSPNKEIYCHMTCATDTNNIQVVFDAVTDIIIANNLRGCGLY
INS promoter inh – TRM-6 insulin promoter activity inhibition; TRM-6 cells (human fetal islet line), insulin promoter-eGFP reporter, imaging; reporter expression induced with tamoxifen; inhibition, % at 2 µM; 0.9% of 130,000 active;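 active = inhibition above the mean plus 3 SD, with well images judged a real hit on visual review, cut at about 60% in these data, passing the limit was not always enough; inconclusive = inhibition over the cutoff but images rejected on review; inactive = inhibition not above the cutoff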
HSV augment – HSV replication enhancement; HSV replication augmentation in cells, fold increase; maximum fold increase; 0.005% of 220,000 active;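 active = peak rise of 1.5-fold or more in the series; inconclusive = self-fluorescent or not available for retest; tested in PC3 cells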;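 also: first round at 10 µM; read as green reporter fluorescence; hits show the peak of a series up to 25 µM; 1 = signal of infected wells without compound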
INS promoter inh cell count – second read-out of INS promoter inh, no call of its own (marks repeat the call); normalized cell count, %; measured here: cell count, toxicity; reference of the scale not given here;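 cells exposed to compound for 48 h; stained nuclei by imaging scaled within each plate; lower means fewer cells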
HSV augment primary fold – further read-out of HSV augment, marked with its call; fold increase; compound at 10 µM; measured here: primary screen fold increase 10 uM; tested in PC3 cells;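 GFP signal in the first replicate; 1 = infected wells without compound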
* marks the source's active call; other numbers are inactive results; i = inactive; ? = inconclusive; · = no result given.

molecule,PKD1 kinase inh,GALR2 ag,RGS16-Gao HTS,INS promoter inh,INS promoter inh cell count,HSV augment,HSV augment primary fold
CCOC(=O)C1CCN(C(=O)Cc2c(F)cccc2Cl)CC1,1.0,-2.7,103.0,0.0,102.2,i,0.91
COC(=O)CCCC(=O)Nc1ccc(Br)cc1,-8.8,-0.5,106.3,0.0,89.9,i,0.84
CC(C)=C1SC(N2CCN(c3ccc(C)cc3)CC2)=NC1=O,-5.9,-2.4,111.0,31.2,64.5,i,1.05
CC(C)OCC1CC(CC(=O)Nc2ccc([N+](=O)[O-])cc2)C(=O)O1 (stereo unspecified),-3.8,·,100.8,·,·,i,0.98
C=CCN(Cc1nc(-c2cc(OC)ccc2OC)oc1C)C1CCS(=O)(=O)C1 (stereo unspecified),-2.0,·,99.8,-33.3,106.7,i,0.86
Cc1ccc2[nH]c(=O)cc(C(=O)OC(C)C)c2c1,-1.3,·,100.2,·,·,i,0.88
O=C(Nc1cc(S(=O)(=O)N2CCCCC2)ccc1O)c1ccccc1NS(=O)(=O)c1ccc(F)c(F)c1,3.7,-0.5,100.7,·,·,i,0.99
O=C(N/N=C/c1cn(-c2ccccc2)nc1-c1cc2ccccc2o1)c1ccncc1,4.6,-0.8,84.1,0.0,106.6,i,0.79
Clc1cccc(NCc2nnc(SCc3ccccc3Cl)o2)c1,-7.1,-1.4,101.7,38.0,224.0,·,·
O=C(CSc1nc2ccsc2c(=O)n1Cc1ccc(C(=O)O)cc1)NCc1ccco1,-9.1,-3.2,104.3,14.3,81.0,i,1.11
COc1ccc(N2CCN(C(=O)C3CCN(S(=O)(=O)N4CCOCC4)CC3)CC2)cc1,-3.1,-4.0,100.3,-7.1,156.3,i,0.93
O=C(O)CC(NC(=O)C(c1ccccc1)c1ccccc1)c1ccco1 (stereo unspecified),8.9,-1.8,79.0,-25.0,129.0,i,0.98
COc1ccc2c(c1OC)C(=O)N1N=C(c3ccc(-c4ccccc4)cc3)CC21 (stereo unspecified),-6.3,·,92.2,·,·,i,0.82
COc1cccc(OC)c1OCCOc1ccc(C(=O)c2ccccc2)cc1,5.1,-2.5,90.9,10.0,94.8,i,0.91
CCCCCn1c(=O)c(-c2nc3ccccc3c(=O)[nH]2)c(O)c2ccccc21,-5.8,-2.7,98.5,59.3,111.9,i,0.88
CC(C)NC(=O)c1ccc2c(c1)S(=O)(=O)c1ccccc1C2=O,-0.8,2.2,101.3,25.0,110.4,i,0.92
Oc1c(C(c2cccs2)N2CCC3(CC2)OCCO3)sc2ncnn12 (stereo unspecified),-1.1,-6.3,105.1,·,·,i,0.99
O=C(NC1CCN(C(=S)NCCc2ccccc2)CC1)C1CC1,-5.0,·,135.1,3.7,46.1,i,1.04
CCn1c(CC(=O)Nc2ccc(Cl)c(Cl)c2)nnc1SCc1ccc(C)cc1,1.1,-0.2,107.4,·,·,i,0.95
CCc1cccc(NC(=O)CN(C)S(=O)(=O)c2cnc[nH]2)c1,-6.0,-2.6,99.0,0.0,81.0,i,0.96
O=C(NCc1ccccc1)C(c1ccc(F)cc1)N(Cc1ccc2c(c1)OCO2)C(=O)Cn1nnc(-c2cccs2)n1 (stereo unspecified),-6.9,-4.1,30.8,51.7,106.0,i,0.98
O=C(C1=NOC(CNc2ncc(C(F)(F)F)cc2Cl)C1)N1CCOCC1 (stereo unspecified),9.6,·,97.6,50.0,130.3,i,1.09
Cc1nn(CCC#N)c2nc(C(F)(F)F)[nH]c(=O)c12,-2.1,-0.1,103.3,-25.9,105.8,i,0.9
Cc1nn(-c2ccccc2)c(N)c1N=Nc1ccc2ccccc2c1,-15.0,-3.6,103.4,16.7,54.2,i,1.01
Cc1cc(N2CCCCC2)nc2ccc(NC(=O)c3ccc(Br)o3)cc12,1.8,-2.6,126.3,58.1,73.2,i,0.77

The final two compounds of the part before open the next one:
molecule,PKD1 kinase inh,GALR2 ag,RGS16-Gao HTS,INS promoter inh,INS promoter inh cell count,HSV augment,HSV augment primary fold
Cc1nn(-c2ccccc2)c(N)c1N=Nc1ccc2ccccc2c1,-15.0,-3.6,103.4,16.7,54.2,i,1.01
Cc1cc(N2CCCCC2)nc2ccc(NC(=O)c3ccc(Br)o3)cc12,1.8,-2.6,126.3,58.1,73.2,i,0.77
CC(C)NCC(=O)NC12CC3CC(CC(C3)C1)C2,-2.6,-0.3,87.8,56.5,91.6,·,·
COc1cccc(CN2C(=O)C3CCCN3c3ccc(S(=O)(=O)N4CCOCC4)cc32)c1 (stereo unspecified),-1.3,-2.1,104.6,0.0,100.7,i,1.02
CCOC(=O)C1CCN(S(=O)(=O)c2cccc(-c3csc(C)n3)c2)CC1,-3.7,-1.4,47.2,-72.7,128.0,i,0.87
C=CCC(CC=C)(NC(=O)c1ccccc1C(=O)O)c1ccccc1,-11.5,-0.4,106.4,-23.7,170.3,i,0.94
N#Cc1ccc(COC(=O)c2cc(=O)c3ccccc3o2)cc1,1.1,·,106.6,38.5,131.9,i,1
Cc1nnc(-c2ccc(Oc3ccc(Br)cc3)c([N+](=O)[O-])c2)o1,9.2,-1.0,111.9,·,·,i,1
COc1cccc(-c2csc(/C(C#N)=C/Nc3cc4oc5ccccc5c4cc3OC)n2)c1,5.1,·,106.4,-10.0,87.7,i,1
COC(=O)c1[nH]c2cccc(OC)c2c1NC(=O)CN1CC(C)OC(C)C1 (stereo unspecified),-0.2,2.5,102.6,12.5,77.4,i,0.87
N/C(=N\OC(=O)Cc1cccs1)c1cccc([N+](=O)[O-])c1,-4.0,-1.7,110.4,-38.5,100.0,·,·
CC(=O)Nc1ccc(-c2cc(-c3ccc(NC(C)=O)cc3)nc(-c3ccc(NC(C)=O)cc3)n2)cc1,-1.5,-0.2,121.6,-16.7,119.3,i,0.99
CN1CCN(S(=O)(=O)c2cc([N+](=O)[O-])ccc2N2CCCCCC2)CC1,-1.7,-3.0,92.8,-23.1,130.6,i,1.05
COC(=O)c1ccc(Cl)c(-c2ccc(/C=N/NC(=O)Nc3ccccc3)o2)c1,-1.3,1.1,103.0,2.7,80.4,i,0.96
S=C1N(c2ccccc2)CN(CCN2CCOCC2)CN1c1ccccc1,·,·,85.5,·,·,i,0.86
Fc1ccccc1Nc1nc(Cl)nc(Cl)n1,-1.0,·,100.0,23.1,90.9,i,0.93
O=c1c(Cl)c(Cl)cnn1Cc1nnc(-c2ccccc2Br)o1,-3.3,·,101.6,·,·,i,0.59
CCS(=O)(=O)c1ccc2c(c1)N(S(C)(=O)=O)CC(C(=O)NC1CC1)O2 (stereo unspecified),-4.5,-1.8,96.8,·,·,i,0.92
COC(=O)c1ccc(NC(=S)NC2CCc3ccccc32)cc1 (stereo unspecified),-0.2,·,107.0,·,·,i,0.99
O=[N+]([O-])c1cc(S(=O)(=O)C(F)(F)F)ccc1N1CCN(c2ccccc2)CC1,-2.7,-1.6,101.2,10.8,129.8,i,0.97
CN1C(=O)/C(=C/c2cc3c(cc2Br)OCO3)NC1=S,-8.9,·,105.8,·,·,i,0.96
Cc1nc(SCc2ccc(Br)cc2)[nH]c(=O)c1C,-9.0,-1.0,100.5,2.8,30.4,i,0.98
CC1(C)OC(=O)C(=CNNc2c(Cl)cc(Cl)cc2Cl)C(=O)O1,·,·,93.2,·,·,i,0.99
Cc1ccc2oc(-c3cccc(NC(=O)C4CCCO4)c3)nc2c1 (stereo unspecified),-5.3,-1.6,99.6,40.7,131.9,i,0.71
C/C(=C(\C#N)C(=O)NC1CCCCC1)N(C)C,-8.6,-1.3,105.2,-61.3,92.5,i,1.05
CCCN(CCC)C(=O)c1c(C)[nH]c(C(=O)OCC)c1C,-2.3,-1.6,103.4,·,·,i,0.97
CCOc1ccc(OCc2ccc(C(=O)N/N=C(\C)c3ccccn3)cc2)cc1,2.2,·,105.2,·,·,i,0.69
CCCCC(=O)Nc1ccc(S(=O)(=O)Nc2nccc(C)n2)cc1,2.5,·,101.3,·,·,i,1
Cc1ccsc1/C=N/NS(=O)(=O)c1ccc([N+](=O)[O-])cc1,-15.9,-0.5,99.7,-20.5,68.0,i,1
NC(=O)c1cc([N+](=O)[O-])ccc1N1CCCCC1,-10.8,-0.2,94.9,-25.0,103.6,i,0.8
COC(=O)c1sc2ccccc2c1NC(=O)c1ccc(S(=O)(=O)N2CCCCC2)cc1,-3.3,-0.6,101.3,·,·,i,0.96
O=C(OCCN1C(=O)c2cccc3c(N4CCOCC4)ccc(c23)C1=O)c1ccc(Cl)cc1,-7.4,0.3,100.9,·,·,?,·
Clc1nnc2ccc(-c3ccccc3)nn12,-7.1,-1.1,99.0,·,·,i,0.77
CCCOc1ccc(/C=N/NC(=O)c2ccc(Cn3cc([N+](=O)[O-])cn3)o2)cc1,-0.8,-2.6,93.6,-166.7,73.9,·,·
CCCCC(=O)NC(c1cccc([N+](=O)[O-])c1)c1c(OC(C)=O)ccc2ccccc12 (stereo unspecified),-1.8,-1.6,98.8,-60.0,115.6,i,0.88
CC(=O)c1c(C)oc2ccc(N(C(C)=O)S(=O)(=O)c3cccc([N+](=O)[O-])c3)cc12,-4.7,·,105.6,·,·,i,0.95
N#Cc1nc(COc2ccc(Br)cc2)oc1N1CCN(Cc2ccccc2)CC1,-11.9,-2.5,116.3,-9.7,83.3,i,1.01
O=C(CC1NC(=O)NC1=O)Nc1cccc2ccccc12 (stereo unspecified),3.1,-1.7,106.8,i,32.3,i,1.21
CCCCCOc1ccc(CSC2=NCCN2)cc1[N+](=O)[O-],1.7,0.3,106.1,-4.6,126.3,i,0.83
CCc1nc(SCc2ccccn2)c2c(=O)n(C)c(=O)n(C)c2n1,-1.1,-2.0,103.9,·,·,i,0.74
Cc1ccc2[nH]c(=O)c(CN(CCO)C(=O)NCc3ccccc3)cc2c1,·,·,77.2,·,·,i,1.01
Nc1nc(-c2ccc(Cl)cc2)cn1N,-6.0,-0.7,102.5,12.2,102.3,i,1.01
O=C(N/N=C/c1ccc(OCc2ccccc2)cc1)c1cc[n+](Cc2ccccc2)cc1,23.7,-2.1,97.2,-97.1,109.9,i,1.09
COc1cc(Cl)c([C@@H]2C[C@H]3CN(c4ccccc4)C(=O)[C@]34CCCN24)cc1OC,4.5,·,122.8,15.0,59.6,i,0.89
Cc1[nH]nc(SCC(=O)NCc2ccc(F)cc2)c1[N+](=O)[O-],0.6,-3.0,66.0,16.7,90.6,i,1.02
O=C(N/N=C/c1cccc(C(F)(F)F)c1)c1ccccc1O,-1.9,·,104.6,·,·,i,0.93
CC(C)(C)C(=O)C(CO)(Oc1ccc(Cl)cc1)n1cncn1 (stereo unspecified),-2.1,-1.9,105.8,-9.7,101.7,i,1.07
CCOC(=O)c1ccc(NC(=O)COc2ccccc2OC)cc1,3.2,0.2,102.3,·,·,i,1.03
Cc1ccc(NC(=O)Cn2cc3c(n2)CCC(C)C3)cc1 (stereo unspecified),-7.2,-1.1,98.9,·,·,i,0.92
CC(=O)c1ccc(N2CCN(c3ccc(C(N)=O)cc3[N+](=O)[O-])CC2)cc1,-8.3,·,100.0,·,·,i,0.95
CC(C)NC(=O)c1ccccc1S(=O)(=O)c1ccccc1C#N,-1.0,-1.4,94.0,31.0,110.1,i,0.83
